FGF22 binding: binders of recombinant human FGF22 by thermal shift. AID 651658. Q9HCT0. 340,000 tested, 1.5% active. calls only at 9.99 µM. SYPRO orange fluorescence; percent of sucrose octasulfate shift, DMSO zero;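 active means melting point raised past a set limit in the mean and every replicate; three in four hits are not shown here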
Target sequence (Q9HCT0 whole entry, looked up): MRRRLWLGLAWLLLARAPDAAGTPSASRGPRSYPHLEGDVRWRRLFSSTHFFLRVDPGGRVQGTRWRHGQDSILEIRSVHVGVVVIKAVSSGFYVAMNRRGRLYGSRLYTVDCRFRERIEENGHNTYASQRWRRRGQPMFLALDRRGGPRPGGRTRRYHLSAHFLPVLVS
HNF4A DNA FP: change in binding of human HNF4 alpha to DNA | AID 1224865 | 360,000 tested, 0.3% active | P41235 | HNF4a-FITC DNA binding, fluorescence polarization, 1 h | activity change, % at 10 µM; in the data active means activity change above about 30%, passing the limit was not always enough;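 further: controls were the assay level and a saturating level of protein; the project sought stronger binding though the title names inhibitors; some compounds called inactive have numbers as strong as hits; positive values seem to mean higher polarization but the record does not say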
Target sequence (P41235 whole entry, looked up): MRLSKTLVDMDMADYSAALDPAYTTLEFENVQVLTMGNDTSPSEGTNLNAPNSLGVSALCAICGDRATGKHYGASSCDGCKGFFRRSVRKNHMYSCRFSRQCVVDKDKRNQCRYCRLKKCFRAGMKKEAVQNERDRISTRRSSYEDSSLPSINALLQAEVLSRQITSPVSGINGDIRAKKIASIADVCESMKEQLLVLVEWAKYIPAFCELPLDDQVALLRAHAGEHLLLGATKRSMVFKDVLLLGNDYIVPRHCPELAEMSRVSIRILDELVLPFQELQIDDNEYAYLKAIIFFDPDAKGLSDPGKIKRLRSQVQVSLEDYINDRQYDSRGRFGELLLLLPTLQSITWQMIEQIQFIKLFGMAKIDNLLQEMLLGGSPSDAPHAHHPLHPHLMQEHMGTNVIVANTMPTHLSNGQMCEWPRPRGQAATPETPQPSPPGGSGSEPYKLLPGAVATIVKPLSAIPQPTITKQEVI
An asterisk follows results filed as active; i = inactive.

| HNF4A DNA FP | FGF22 binding | mol |
| --- | --- | --- |
| 0.8 | i | Cc1cccc(C)c1NC(=O)C(c1ccncc1)N1CCN(C)CC1 (stereo not drawn) |
| 0.8 | i | COc1ccc(C(C)C)cc1-c1ccc2nncn2c1 |
| -3.2 | i | Cc1cccc(C(O)c2ncc(-c3ccccc3F)[nH]2)c1C (stereo not drawn) |
| 7.6 | i | COc1ccc(Cc2c(-c3ccco3)nc3c(C)cc(Br)cn23)c(C)c1 |
| -0.6 | i | CC(C)NC(=O)C1(C)CCN1C(=O)Cc1ccc(-c2ccccc2)cc1 (stereo not drawn) |
| 0.9 | i | Cc1ncc(C(O)c2ccc(N(C)C)cc2)n1Cc1ccccc1 (stereo not drawn) |
| -0.3 | i | Cc1ccccc1N1CCN(C(=O)c2cc(-c3ccccc3)nc3c2cnn3C(C)C)CC1 |
| 3.5 | i | CCc1nc2c(OCCOc3ccc(F)cc3)cccn2c1N(C=O)Cc1ccc(OC)cc1 |
| 2.3 | i | CNC(=O)OCc1snc(-c2ccccc2)c1COC(=O)NC |
| -0.4 | i | Cc1cccc(C)c1NC(=O)C1(C)CN(S(C)(=O)=O)CC(=O)N1Cc1cccs1 (stereo not drawn) |
| 1.5 | i | Cc1ccc(F)cc1C(=O)N1CCCCC1c1cc(C(=O)NCc2ccccc2)no1 (stereo not drawn) |
| 1.6 | i | O=[N+]([O-])c1cnc(Sc2ccncn2)c([N+](=O)[O-])c1 |
| -2.4 | i | COc1ccccc1N1CCN(C(=O)[C@@H]2CCCN2C2=NS(=O)(=O)c3ccccc32)CC1 |
| 1.4 | i | c1ccc(-c2nc(NCC3CC3)nc3ccsc23)cc1 |
| -0.8 | i | CCC(C(=O)NC1CCCC1)n1c(C2CC2)nc2ccccc21 (stereo not drawn) |
| 0.8 | i | CCN(CC)S(=O)(=O)c1ccc(-c2cn3ccccc3n2)cc1 |
| 0.6 | i | Cc1cccc(N2CCN(C(=O)c3[nH]c(C(F)(F)F)nc3-c3ccccc3)CC2)c1C |
| 1.3 | i | CC1(C(=O)Nc2cccc(Oc3ccccc3)c2)CCN1Cc1ccccc1Cl (stereo not drawn) |
| -0.9 | i | N#Cc1cccc(C(=O)C(=O)N2CCN(C(=O)OCc3ccccc3)CC2)c1 |
| -0.2 | i | Nc1ccccc1C(=O)NN=Cc1cccnc1 |
| 2.5 | i | CCCCNC(=O)C1c2ccccc2OCC(=O)N1Cc1ccc2c(c1)OCO2 (stereo not drawn) |
| -0.8 | i | C#CCNC(=O)C[C@@H]1C[C@@]2(C(=O)OCC)CCC=C2N(Cc2cccc3ccccc23)C1=O |
| 1.5 | i | CCN1C(=O)[C@H]2[C@@H](c3ccc(C(F)(F)F)cc3)N[C@]3(CCCN(Cc4ccc(F)cc4)C3=O)[C@H]2C1=O |
| -0.8 | i | Nc1ncnc2c1ncn2[C@@H]1O[C@H](C(=O)N(CCC2=CCCCC2)CC2CC2)[C@@H](O)[C@H]1O |
| 6.5 | i | C=C1CCCC2OC(CC3=CC4/C(C)=C/CC(C)CC(/C=C(\C)C(O)C5CC(O)C(O)C(CCC(O)/C=C/C(C)=C/CCC6=NCCC(C3)C64C)O5)OC(=O)CC3OC(C(O)C1)C(O)C3O)CC(O)C2O (stereo not drawn) |
| -0.3 | i | CC(C)C(=O)N1CCC1(C)C(=O)Nc1cccc(Oc2ccccc2)c1 (stereo not drawn) |
| 2.4 | i | O=C(NCc1ccc2c(c1)OCO2)C(=O)NCC1OCCCN1S(=O)(=O)c1ccccc1 (stereo not drawn) |
| -1.9 | i | O=C(C(O)c1ccccc1)N1CCN(S(=O)(=O)c2ccc(F)c(F)c2)CC1 (stereo not drawn) |
| -1.2 | i | CC(=O)NC(c1cccc(F)c1)c1nc(-c2cccs2)cs1 (stereo not drawn) |
| 2.6 | i | Nc1ccc2c(Cl)cc(Cl)cc2c1 |

Laid out differently: entries from further up
SMILES | HNF4A DNA FP | FGF22 binding
COc1ccc(Cc2c(-c3ccco3)nc3c(C)cc(Br)cn23)c(C)c1 | 7.6 | i
CCC(C(=O)NC1CCCC1)n1c(C2CC2)nc2ccccc21 (stereo not drawn) | -0.8 | i
CC(=O)NC(c1cccc(F)c1)c1nc(-c2cccs2)cs1 (stereo not drawn) | -1.2 | i

(cont.)
| HNF4A DNA FP | FGF22 binding | mol |
| --- | --- | --- |
| -1.7 | i | CN(C)C(CNC(=O)c1cc(Br)c(Br)s1)c1ccco1 (stereo not drawn) |
| -2.0 | i | Cc1cc(C(=O)N2CCC2(C)C(=O)NCCC#N)nn1C (stereo not drawn) |
| 3.4 | i | O=C1[C@H]2[C@@H](c3ccccc3)N[C@]3(CCCN(CC4CCCCC4)C3=O)[C@H]2C(=O)N1Cc1ccccc1 |
| 0.7 | i | O=C(C(=Cc1ccc(O)cc1)c1ccccc1)c1ccccc1 |
| -1.3 | i | COc1cc(C(=O)NCC(c2cccs2)N2CCOCC2)ccc1OCc1ccccc1 (stereo not drawn) |
| 0.8 | i | CCCCC(=O)N1C(C)CCC1C (stereo not drawn) |
| 3.1 | i | CC1(C(=O)NS(=O)(=O)c2ccc(Cl)s2)CCN1C(=O)C1CCCCC1 (stereo not drawn) |
| 0.4 | i | Cc1cccnc1NC(=O)c1ccc(S(=O)(=O)N2CCCC2)cc1 |
| -4.7 | i | CC1(C(=O)NS(=O)(=O)c2ccc(Cl)cc2)CCN1C(=O)CC1CC1 (stereo not drawn) |
| 2.8 | i | CC(C)(C)OC(=O)N1CCN(C(=O)c2[nH]c(C(F)(F)F)nc2-c2ccccc2)CC1 |
| -2.5 | i | COc1ccc(NC(=S)N2CCC3CC2c2c(Cl)cccc23)c(OC)c1 (stereo not drawn) |
| 0.5 | i | COc1ccc(S(=O)(=O)N2CCOC2CNC(=O)C(=O)NCc2ccccn2)cc1OC (stereo not drawn) |
| -3.2 | i | CCOC(=O)[C@]12CCC=C1N(Cc1ccc(Cl)cc1Cl)C(=O)[C@H](CC(=O)NCc1cccc3ccccc13)C2 |
| 4.0 | i | Cc1c(NC(=O)CSc2nnc(-c3ccncc3)n2C)c(=O)n(-c2ccccc2)n1C |
| -4.7 | i | CCCc1nc2ccccc2n1C(CC)C(=O)NC(C)(C)C (stereo not drawn) |
| 4.5 | i | O=C(NCc1ccccc1)C1c2ccccc2OCC(=O)N1CC(F)(F)F (stereo not drawn) |
| -3.5 | i | COC(=O)C1(C(=O)OC)C/C=C\CN(S(=O)(=O)c2ccccc2[N+](=O)[O-])CCC1 |
| 3.3 | i | Cc1ccsc1C(=O)N1CCCC(C)(C(=O)O)C1 (stereo not drawn) |
| -1.5 | i | CNC(=O)C[C@H]1C(=O)N(c2ccccc2)C[C@@H]1C |
| 2.5 | i | Cc1cccc(C(=O)OCC(=O)N2c3ccccc3CC2C)c1C (stereo not drawn) |
| 3.7 | i | CC(C)(C)Cc1c(-c2ccc(F)cc2)nc2ccc(Br)cn12 |
| -2.0 | i | CSc1ccc(CN2CCC2(C)C(=O)NC2CCc3ccccc32)cc1 (stereo not drawn) |
| 0.6 | i | COc1ccc(S(=O)(=O)N(C)[C@H]2C[C@H]3c4cc(N5CCN(C)CC5)ccc4CCN3C(=O)[C@H]2[C@H](C)O)cc1 |
| -2.8 | i | Cc1ccc(C(=O)N/N=C/c2cccnc2)cc1Cl |
| -4.7 | i | O=C(COc1ccc(Cl)cc1Cl)NCCN1CCCCC1 |
| -0.2 | i | CCCS(=O)(=O)NC(=O)C1(C)CCN1C(=O)Cc1ccc(Cl)cc1Cl (stereo not drawn) |
| 6.0 | i | O=C1NC[C@H](CC2CCCCC2)N(CCC23CC4CC(CC(C4)C2)C3)C1=O |
| 8.4 | i | CC(=O)C(=Cc1ccccc1)c1ccccc1 |
| -4.5 | i | CCCCCCCCN1C(=O)[C@H](CC(=O)NCCCN2CCCC2=O)C[C@@]2(C(=O)OC)CCCCC=C12 |
| 3.0 | i | CN1CCN(c2cc(CNC[C@H]3O[C@@H](n4cnc5c(=O)[nH]c(N)nc54)[C@H](O)[C@@H]3O)ccc2F)CC1 |

Another view of part of the listing above.
SMILES: COC(=O)C1(C(=O)OC)C/C=C\CN(S(=O)(=O)c2ccccc2[N+](=O)[O-])CCC1
- HNF4A DNA FP = -3.5
- FGF22 binding = i

SMILES: Cc1ccsc1C(=O)N1CCCC(C)(C(=O)O)C1 (stereo not drawn)
- HNF4A DNA FP = 3.3
- FGF22 binding = i

SMILES: CNC(=O)C[C@H]1C(=O)N(c2ccccc2)C[C@@H]1C
- HNF4A DNA FP = -1.5
- FGF22 binding = i

SMILES: Cc1cccc(C(=O)OCC(=O)N2c3ccccc3CC2C)c1C (stereo not drawn)
- HNF4A DNA FP = 2.5
- FGF22 binding = i

Next part:
| HNF4A DNA FP | FGF22 binding | mol |
| --- | --- | --- |
| 1.6 | i | CCOC(=O)[C@]12CCC=C1N(Cc1cccc3ccccc13)C(=O)[C@H](CC(=O)N1CCN(C(=O)C3CC3)CC1)C2 |
| -4.4 | i | COc1ccccc1CNC(=O)COc1cc(O)c2c(c1)OC(C)(C)CC2=O |
| 2.7 | i | O=C(Nc1cccc(OC(F)(F)F)c1)C1Cc2c(-c3ccc4c(c3)OCO4)ccnc2O1 (stereo not drawn) |
| -1.8 | i | CCCOc1ccccc1NC(=O)/C=C/c1ccc(OC)c(S(=O)(=O)N2CCOCC2)c1 |
| 1.4 | i | Cc1ccc(C(O)c2ncc(-c3ccccc3C)[nH]2)cc1F (stereo not drawn) |
| 7.4 | i | O=C(COC(=O)c1cccc(Cl)c1Cl)NC1CCCCCC1 |
| -1.2 | i | CCCCN1C(=O)C(=O)NC[C@@H]1Cc1ccc(O)cc1 |
| 8.0 | i | COc1cc(C(=O)NC2CC2)cc(OC)c1OC |
| 3.5 | i | CC(=O)c1cc2c(cc1NC(=O)CSc1nnc(C3CC3)n1C)OCO2 |
| 0.1 | i | CC1=C(C(=O)N2CCCCCC2)CC(CC(=O)NCC2CCCCC2)C(=O)N1CCCN1CCCC1=O (stereo not drawn) |
| -2.8 | i | CC1=C(C(=O)N2CCOCC2)CC(CC(=O)NCCCN(C)C)C(=O)N1CCCN1CCCC1=O (stereo not drawn) |
| 3.9 | i | COc1ccccc1C(=O)NCC(=O)OCc1nnc(-c2ccccc2)o1 |
| -2.2 | i | Cc1cn([C@H]2C[C@H](O)[C@@H](/C=C/C(=O)NCCc3ccc4ccccc4c3)O2)c(=O)[nH]c1=O |
| 2.3 | i | Cn1c(Oc2cccnc2CN2CCCC2)nc2cc(-c3cccc(C(F)(F)F)c3)sc2c1=O |
| -1.0 | i | CCN1CCN(c2ccc(N3CCN(S(=O)(=O)c4cccc([N+](=O)[O-])c4)CC3)nn2)CC1 |
| 4.3 | i | O=C1NC[C@@H](Cc2cccc3ccccc23)N(CCc2cccc(F)c2)C1=O |
| 1.8 | i | CCOC(=O)c1[nH]c(=S)n(-c2ccccc2)c1C(=O)OCC |
| -2.8 | i | CCc1nc2ccc(C(=O)Nc3cccc(NS(C)(=O)=O)c3)cn2c1N(CC)Cc1cccc(Br)c1 |
| -0.9 | i | Cc1ccc(S(=O)(=O)N2CCC(=O)N([C@H](COCc3ccc(C(F)(F)F)cc3)C(C)C)CC2)cc1 |
| -2.4 | i | CCOC(=O)[C@]12CCCC=C1N(Cc1cccc3ccccc13)C(=O)[C@H](CC(=O)N1CCN(C(=O)C3CC3)CC1)C2 |
| 0.4 | i | COc1ccc(S(=O)(=O)Nc2cc3c4c(c2)CC(=O)N4CCC3)cc1OC |
| 2.4 | i | CC(C)(C)NC(=O)C1c2ccccc2OCC(=O)N1Cc1ccccc1 (stereo not drawn) |
| 3.4 | i | Cc1cc(C)n(CCNC(=O)[C@H]2O[C@@H](n3cnc4c(N)ncnc43)[C@H](O)[C@@H]2O)n1 |

Some of the entries so far, in CSV form:
Structure,HNF4A DNA FP,FGF22 binding
O=C(COC(=O)c1cccc(Cl)c1Cl)NC1CCCCCC1,7.4,i
CCCCN1C(=O)C(=O)NC[C@@H]1Cc1ccc(O)cc1,-1.2,i
COc1cc(C(=O)NC2CC2)cc(OC)c1OC,8.0,i
CC(=O)c1cc2c(cc1NC(=O)CSc1nnc(C3CC3)n1C)OCO2,3.5,i

Of the compounds above, these have a nitro group on carbon.
| HNF4A DNA FP | FGF22 binding | mol |
| --- | --- | --- |
| 1.6 | i | O=[N+]([O-])c1cnc(Sc2ccncn2)c([N+](=O)[O-])c1 |
| -3.5 | i | COC(=O)C1(C(=O)OC)C/C=C\CN(S(=O)(=O)c2ccccc2[N+](=O)[O-])CCC1 |
| -1.0 | i | CCN1CCN(c2ccc(N3CCN(S(=O)(=O)c4cccc([N+](=O)[O-])c4)CC3)nn2)CC1 |

Screening data deposited in PubChem by several laboratories.

An excerpt. The share of hits here may be higher or lower than overall.
